HCMV UL50-53 inh = inhibitors of HCMV UL50-UL53 nuclear egress complex interaction | inhibition, % (no concentration beside the values) | HTRF UL50-UL53 interaction, normalized percent inhibition | 190,000 compounds, 0.15% hits;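 active = both replicates at 50% or more, plus weaker picks with an unusually low signal ratio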;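 note: stock transfer was 100 nL into about 20 µL; 0% = negative control wells and 100% = wells with untagged competitor protein; inactives centre near -12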
Sa growth 42C = S. aureus growth inhibition. S. aureus RN4220 growth, OD600, 20 h, 42 °C; active compounds read low. 170,000 compounds, 0.53% hits. relative growth, % (no concentration beside the values);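 active = growth at 42 °C up to 50% and 20 or more points under that at 30 °C, or under 10% at both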;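 note: 300 nL library stock went into each well; scaled to the means of positive and negative controls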
GIV Gai3 FP = inhibitors of GIV GBA-motif binding to rat Galpha-i3; Galpha-i3/FITC-GIV peptide fluorescence polarization, 90 min; active compounds read low; scaled: aluminum fluoride 0%, vehicle 100%; percent of control (FP), % (concentration not given with the values); P08753; 210,000 compounds, 0.42% hits;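 active = replicate mean at 85% of control or lower, very high polarization wells dropped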;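 note: wells of about 15 µL received 100 nL stock; the first replicate is given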
Target sequence (P08753 whole entry, looked up): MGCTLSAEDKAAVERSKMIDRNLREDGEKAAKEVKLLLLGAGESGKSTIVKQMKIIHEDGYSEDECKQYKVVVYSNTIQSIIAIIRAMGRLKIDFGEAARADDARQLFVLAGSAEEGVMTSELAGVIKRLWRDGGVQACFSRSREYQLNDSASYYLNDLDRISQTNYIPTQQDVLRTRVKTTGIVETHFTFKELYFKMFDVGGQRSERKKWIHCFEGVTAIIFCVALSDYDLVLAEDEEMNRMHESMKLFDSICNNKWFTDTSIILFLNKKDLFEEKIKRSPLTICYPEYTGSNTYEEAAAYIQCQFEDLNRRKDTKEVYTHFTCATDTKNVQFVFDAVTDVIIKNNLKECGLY
Sa growth 42C second temp = second read-out of Sa growth 42C, no call of its own (marks repeat the call); relative growth, %; measured here: growth at 30 °C;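 optical density after 20 h as mean of two plates; 100% = untreated growth and lower means inhibition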
Numbers without * were called inactive; nt = no result given; & = joins results of further samples.

Preview, 4 compounds:
canonical_smiles,HCMV UL50-53 inh,Sa growth 42C second temp,GIV Gai3 FP,Sa growth 42C
Cc1ccc(S(=O)(=O)N2CCCCC2C(=O)O)cc1 (stereo unspecified),-17,94,95,103
COc1ccc(-c2cn3c(C)c(C(=O)Nc4cc(C)cc(C)c4)sc3n2)cc1,nt,93,102,94
CCn1nc(C)c(CCC(=O)O)c1C,-5,82,101,114
COc1ccc(-n2nnc3c(SCC(=O)NC4CCCCC4)ncnc32)cc1,-26,97,108,110

The whole of this part, previewed entries included:
canonical_smiles,HCMV UL50-53 inh,Sa growth 42C second temp,GIV Gai3 FP,Sa growth 42C
Cc1ccc(S(=O)(=O)N2CCCCC2C(=O)O)cc1 (stereo unspecified),-17,94,95,103
COc1ccc(-c2cn3c(C)c(C(=O)Nc4cc(C)cc(C)c4)sc3n2)cc1,nt,93,102,94
CCn1nc(C)c(CCC(=O)O)c1C,-5,82,101,114
COc1ccc(-n2nnc3c(SCC(=O)NC4CCCCC4)ncnc32)cc1,-26,97,108,110
Cc1ccc(C)n1-c1ccc(C(=O)O)cc1O,56*,54,31*,90
Cn1cc(CC(=O)NCc2ccccn2)c2ccccc21,-10,79,100,110
CC(=O)N1CCN(S(=O)(=O)c2ccc3c(c2)NC(=O)CO3)CC1,-2,nt,110,nt
S=C(NCCc1c[nH]c2ccccc12)NCCN1CCOCC1,-3,96,nt,91
CCOC(=O)CC(=N)N,12,95,100,84
COc1ccc(N=C(N)/C(C#N)=C/c2[nH]c3ccccc3c2O)cc1,nt,43,259,100
CC(C)(C)c1ccc(C(=O)N2CCCc3ccccc32)cc1,nt,93,102,78
O=C1Nc2c(c(=O)[nH]c(=O)n2-c2ccc(F)cc2)C1(NS(=O)(=O)c1ccc(Cl)cc1)C(F)(F)F (stereo unspecified),-12,90,102,86
COc1cc(-c2nc(Cl)nc3ccc(Cl)cc23)cc(OC)c1OC,1,nt,100,nt
Cc1ccc(S(=O)(=O)NCc2cn3ccsc3n2)cc1,-31,nt,102,nt
Cc1ccc(O)c(C(=O)c2cnn(-c3nc(C)cc(=O)[nH]3)c2)c1,9,93,nt,106
CC(C)c1ccc(OCC(O)CN2C(=O)NC(C)(C)C2=O)cc1 (stereo unspecified),-3,nt,91,nt
CC(Sc1nnc2n1CCCCC2)C(=O)NCc1ccc2c(c1)OCO2 (stereo unspecified),-21,93,nt,73
Fc1ccc(-n2ncc3c(N4CCN(Cc5ccccc5)CC4)ncnc32)cc1,nt,94,106,110
Cc1cccc(NC(=O)c2nnn(CC(=O)Nc3ccc(C(C)C)cc3)c2N)c1,0,nt,97,nt
COc1ccccc1NC(=O)C#Cc1ccccc1,-29,89,95,78

Other results.
canonical_smiles,HCMV UL50-53 inh,Sa growth 42C second temp,GIV Gai3 FP,Sa growth 42C
Cc1nc2cccnc2n1-c1ccc(CC(=O)NCc2cccs2)cc1,12,105,116,103
COc1ccc(-c2onc3ccc4c5ccccc5oc4c23)cc1OC,nt,90,102,91
CCOC(=O)c1c(C)n(C)c2ccc(OCC(N)=O)cc12,10,92,105,98
Cc1cc(C)nc(SCc2nnc(SCC(=O)Nc3ccc(S(N)(=O)=O)cc3)n2C)n1,-1,89,106,100
CC(C)=CC(=O)Nc1ccccc1C(N)=O,-2,93,108,108
CC(=O)Nc1ccc(/C=N/N2C(C)CCCC2C)cc1 (stereo unspecified),-15,89,nt,106
CNC(=O)COC(=O)C1(c2ccc(Cl)cc2)CCC1,-3,104,nt,101
COc1ccc(CCNC(=O)c2nc(SCc3ccccc3F)ncc2Cl)cc1OC,-4,94,107,107
C=CCn1c(COc2ccc(CC)cc2)nnc1SCC(=O)/C(C#N)=C(\C)N,-29,91,nt,102
Cc1cccc(-c2nc(CSCC(=O)N3CCOCC3)c(C)o2)c1,2,96,97,92
COc1cccc(CNCCCSc2nnnn2C)c1OC,-11,82,98,100
COc1ccc(CCNC(=O)CN2C(=O)CCn3nc(-c4cccn4C)cc32)cc1OC,-20,nt,106,nt
CCCn1c2ccccc2c2cnn(CC(=O)NCCc3ccc(C)cc3)c(=O)c21,nt,112,106,98
Cc1cccc(N(CC(=O)O)CC(=O)O)c1,nt,88,94,95
CCOC(=O)c1[nH]c(C)c(/C(O)=C2\C(=O)C(=O)N(CCN3CCOCC3)C2c2ccco2)c1C (stereo unspecified),-10,95,105,109
Cc1nc2ccc(S(=O)(=O)NC(C(=O)Nc3ccccc3C)c3ccccc3)cc2s1 (stereo unspecified),nt,88,108,115
Cc1ccn2c(NC(=O)c3cc4cc(Br)ccc4oc3=O)c(-c3ccccc3)nc2c1,-21,nt,101,nt
Cc1cccc(C(=O)Oc2c(Sc3ccccc3)c(C)nn2C(C)(C)C)c1,-5,89,100,118
CC1(C)Cc2ccccc2C(c2sc3nc4c(cc3c2N)CCC4)=N1,-6,100,106,94
COC(=O)c1c(NC(=O)N2CCCC2c2ccccc2F)sc2c1CCCC2 (stereo unspecified),-14,nt,99,nt

(listing goes on)
canonical_smiles,HCMV UL50-53 inh,Sa growth 42C second temp,GIV Gai3 FP,Sa growth 42C
O=C1CCCN1S(=O)(=O)c1ccccc1,25,101,111,91
O=C(COc1ccccc1O)NO,-12,89,101,89
O=C(NCc1cccc(Cl)c1)NCc1noc2ccccc12,nt,87,98,121
CCC(CC)C(=O)Nc1nnc(SCc2cc(=O)n3cccc(C)c3n2)s1,nt,91,102,117
CC(=O)NC1(C(F)(F)F)C(=O)N(CC2CCCO2)C2=C1C(=O)CC(C)(C)C2 (stereo unspecified),-21,nt,96,nt
Cc1ccc2nc(NS(=O)(=O)c3ccc(Cl)cc3)c(Nc3ccc(C(=O)O)cc3)nc2c1,-11,89,116,100
CCc1ccc(CNc2ccc3c(c2)ncn3C)cc1,nt,84,106,109
Cc1ccc2c(c1)-c1c(cnn1CC(=O)NCCCN1CCN(c3ccccc3)CC1)CO2,-25,nt,105,nt
Cc1ccc(N(CC(=O)Nc2nccs2)S(=O)(=O)c2c(C)nn(C)c2C)cc1,-10,nt,99,nt
Cc1cccc(NC(=O)CCS(=O)(=O)c2cccc3nsnc23)c1C,-97,86,103,102
CCCc1cc(=O)oc2cc(OC(C)C)c(Cl)cc12,3,92,nt,116
CCn1c(C)cc2c(c1=O)C(c1cccc(OC)c1)C(C(=O)OC)=C(N)O2 (stereo unspecified),-3,106,104,109
CC(C)CC(c1nnnn1C1CCCC1)N1CCC(C(N)=O)CC1 (stereo unspecified),-21,83,97,115
CCn1c2ccccc2c2cc(N=Cc3cc(C)n(-c4cccc(S(=O)(=O)N5CCOCC5)c4)c3C)ccc21,-26,86,nt,89
CCc1ccc(N2C(=O)CS(=O)(=O)C23C(=O)N(Cc2ccccc2)c2ccccc23)cc1 (stereo unspecified),nt,89,106,81
CCOC(=O)c1c(-c2ccc(C)cc2)csc1NC(=O)c1nc(SC(C)C)ncc1Cl,-34,86,97,94
COc1ccc(Cl)cc1NC(=O)CCN1CCN(c2ccccc2C)CC1,-8,97,nt,90
COc1ccc(/C=C2\CC/C(=C\CC(C)C)C2=O)cc1Br,nt,85,101,92
CCCN(CCC)CCCNC(=O)c1cc2c(=O)oc3ccc(C)cc3c2s1,-79,90,111,114
CC(=O)Nc1ccc(S(=O)(=O)N2CCN(C(=O)c3ncoc3-c3ccccc3)CC2)cc1,1,80,100,82

Further records follow.
canonical_smiles,HCMV UL50-53 inh,Sa growth 42C second temp,GIV Gai3 FP,Sa growth 42C
CC1CCCN(c2ccc(NC(=O)c3ccccc3Cl)c(C(=O)O)c2)C1 (stereo unspecified),-15,nt,97,nt
Cc1ccc(-n2nc3c(N4CCC(C(=O)NCc5ccccc5Cl)CC4)nnc(C)c3c2C)cc1,nt,104,110,114
O=C(CSc1oc(-c2ccccc2)nc1S(=O)(=O)c1ccc(Cl)cc1)NCC1CCCO1 (stereo unspecified),nt,93,101,100
COc1ccc(C=Nc2cccc(Cl)c2)cc1,nt,78,107,115
c1ccc2sc(NN=C3CCCC3)nc2c1,-9,70,106,92
CCOC(=O)c1cccc(NC(=O)C2(S(=O)(=O)c3ccc(C)cc3)CC2)c1,-3,84,100,104
Cc1ccc(CNC(=O)C(=O)Nc2c3c(nn2-c2ccccc2)CSC3)cc1,nt,72,101,114
COC(=O)c1c(Cn2cc(Br)ccc2=O)nc2ccccc2c1C,-5,102,nt,94
Oc1c(C(c2ccccc2Cl)N2CCN(Cc3ccccc3)CC2)sc2nc(-c3ccco3)nn12 (stereo unspecified),nt,76,98,76
CC1=C(C(=O)Nc2ccccc2C(=O)NC(C)(C)C)SCCO1,12,85,109,90
Cc1cc(OC(=O)c2ccccc2Cl)n(CCC#N)n1,-23,93,nt,80
O=c1oc2ccccc2o1,-23,87,nt,72
Cc1ccccc1NC(=O)c1sc2nc(-c3cc4ccccc4oc3=O)[nH]c(=O)c2c1C,6,105,71*,118
COC(=O)C1C2C=CC3(CN(c4cccc(C)c4)C(=O)C13)O2 (stereo unspecified),-3,87,99,94
C#CCOC(=O)c1ccc(CSc2ccc(Cl)cc2)o1,-11,94,108,90
O=C(O)C1CCCCC1C(=O)N1CCCC1 (stereo unspecified),-9,83,nt,94
O=C(NCCc1ccc(Cl)cc1)c1cc2c(s1)CS(=O)(=O)C2,-28,nt,109,nt
CC1=NN(c2ccccc2)C(=O)C(C=C2C(=O)N(C)C(=S)N(C)C2=O)C1 (stereo unspecified),nt,99,101,110
N#Cc1ccccc1N=Cc1ccc(Br)cc1,-6,83,nt,90
O=C(OCCCN=C1NS(=O)(=O)c2ccccc21)c1ccccc1Br,-20,nt,105,nt

(further entries)
canonical_smiles,HCMV UL50-53 inh,Sa growth 42C second temp,GIV Gai3 FP,Sa growth 42C
Cc1ccccc1Nc1nc(N)nc(COc2ncnc3sccc23)n1,-29,65,nt,76
Cc1cccc(-n2c(CNC(=O)c3cccc(F)c3)nnc2SCC(=O)Nc2ccccc2F)c1,-21,83,99,113
Cc1ccc(S(=O)(=O)NC(=O)c2cc(C)n(-c3ccccc3)c2C)cc1,-19,104,nt,109
COC(=O)c1sccc1NC(=O)CSCc1ccc(Cl)cc1,-16,81,98,93
Cc1nnn(C23CC4CC(CC(C(=O)NCc5ccccc5)(C4)C2)C3)n1,nt,92,103,107
CCOCCCNC(=O)c1nnc(-c2oc3ccccc3c2C)o1,-19,nt,105,nt
CCOC(=O)c1nc2ccccc2nc1Nc1cc(Cl)c(OC)cc1OC,0,nt,96,nt
CCOC(=O)C1=C(C)N=c2s/c(=C/c3cc(Br)c(N4CCOCC4)o3)c(=O)n2C1c1ccc(OC)cc1 (stereo unspecified),-16,nt,107,nt
CN1CCN(c2ccc(NC(=O)c3ccc4c(c3)[nH]c(=O)n4C3CCCCC3)cc2)CC1,-18,96,107,95
CN1C(=O)Cc2cc(S(=O)(=O)CCC(=O)Nc3ccc(F)c(Cl)c3)ccc21,-25,92,111&102,108
O=C(C1CCN(c2nc3ccccc3n3cccc23)CC1)N1CCN(Cc2ccccc2)CC1,-4,nt,102,nt
CCOc1ccc(CCNC(=O)CCn2c(=O)c3cccn3c3ccc(F)cc32)cc1OCC,-8,75,101,118
CC(C)NC(=O)Cn1c(=O)c2cccn2c2cccnc21,nt,79,97,96
CC(C)N(C(=O)CSc1cn(CC(=O)N2CCCCCC2)c2ccccc12)C(C)C,nt,105,103,117
CC(C)(C)OC(=O)N1CCC(c2c(C(=O)N3CCN(Cc4ccccc4)CC3)cnn2-c2cccc(Cl)c2)CC1,nt,92,99,91
COc1cc(OC)c(Nc2nc3ccccc3c3nncn23)cc1Cl,6,97,104,90
CCN(CCCc1ccccc1)CCCc1ccccc1,-18&-1&-17,79,nt,91
CC1CCN(C(=O)Nc2cccc(Cl)c2Cl)CC1,-28,99,103,114
CC1CCN(CCCNC(=O)c2ccc3c(Cl)c4c(nc3c2)CCCC4)CC1,-46,nt,101,nt
Cc1noc(C)c1C(=O)O/N=C(\N)c1ccc(-c2csnn2)cc1,-34,89,107,105

Remaining list, next part
canonical_smiles,HCMV UL50-53 inh,Sa growth 42C second temp,GIV Gai3 FP,Sa growth 42C
CC(=O)N1N=C(c2cccs2)CC1c1cccs1 (stereo unspecified),nt,83,99,98
CCOCCc1nnc(NS(=O)(=O)c2ccc(OC)cc2)s1,17,96,102,70
NC(=O)COc1ccccc1O,-6,94,98,103
O=S(=O)(c1ccccc1)c1cnc2ccccc2c1N1CCC2(CC1)OCCO2,nt,74,103,95
COc1cc(NC(=O)c2ccc(-n3nc(OCc4ccc(Cl)cc4)ccc3=O)cc2)cc(OC)c1,-31,nt,103,nt
CCOc1ccc(C(=O)Nc2nnc(S(=O)(=O)N(CC)c3ccccc3C)s2)cc1,-6,94,109,103
CCc1c(C)nc(-n2nc(C)cc2NC(=O)c2ccc(F)c(F)c2)[nH]c1=O,-20,nt,96,nt
CNC(=O)c1c(-c2ccccc2)nc2n1CCS2(=O)=O,5,nt,99,nt
Cc1ccc(NCC#N)cc1,-32,85,nt,124
COc1ccccc1CNC(=O)c1nn(C)c2c1COc1ccccc1-2,nt,71,102,99
COc1ccccc1CNC(=O)c1ccc2[nH]c(C)c(C)c2c1,nt,100,100,98
Cc1ccccc1CSCCNC(=O)C1CCN(S(=O)(=O)Cc2ccccc2)CC1,-4,95,109,114

High-throughput results: PubChem, ICCB-Longwood Screening Facility, Harvard Medical School
